Screening data from PubChem BioAssay.
Rce1 inhib = yeast Rce1p protease inhibitors, primary screen, biochemical, fluorescence, cell-free homogeneous; 290,000 tested, 0.27% active; calls only; yeast membranes, quenched prenylated peptide cleavage fluorescence;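 active = fall in fluorescence gain of 50% or more versus controls, with final raw signal at or below 3038400; inconclusive = same 50% fall but final raw signal above 3038400; inactive = fall in fluorescence gain under 50%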;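 also: plate controls were neutral control wells for no effect and wells lacking membranes for full effect; tested at 10 µM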
Target sequence (Q03530 whole entry, looked up): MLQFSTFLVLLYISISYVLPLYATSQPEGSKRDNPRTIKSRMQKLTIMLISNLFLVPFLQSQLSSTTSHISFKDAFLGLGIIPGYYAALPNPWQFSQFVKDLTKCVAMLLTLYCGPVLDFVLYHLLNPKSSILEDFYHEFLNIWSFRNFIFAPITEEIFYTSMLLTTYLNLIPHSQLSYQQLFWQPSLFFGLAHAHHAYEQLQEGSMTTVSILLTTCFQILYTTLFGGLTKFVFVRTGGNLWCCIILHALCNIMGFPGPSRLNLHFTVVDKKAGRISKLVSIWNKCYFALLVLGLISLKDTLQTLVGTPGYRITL
PABP FP inh = PABP poly(A) RNA binding inhibitors, primary screen, biochemical, fluorescence polarization, uHTS; Polyadenylate-binding protein 1 (Homo sapiens), P11940; inhibition, % at 35 µM; 290,000 tested, 1% active; AID 2014, 2009;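 active = 50% or more with normal probe brightness, or confirmed in later tests; inconclusive = above 50% with abnormal brightness, or retests that disagree; inactive = below 50% or failed in later tests; about a fifth of its hits are not listed in these tables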;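 also: calls also rest on retests at 20 µM and on dose response follow-up; controls were probe without protein and protein plus probe with vehicle; some compounds called inactive have numbers as strong as hits; many hits fall short of the cut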
Yeast UUG start = modulators of yeast start codon fidelity, primary screen, whole organism, S. cerevisiae, single point, plate reader | 350,000 tested, 0.13% active | AID 602363, 2012 | S. cerevisiae UUG-firefly luciferase reporter, luminescence/redox ratio | activity score, % at 18.7 µM;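 active = replicate mean at a twofold rise or more, about +100% in these data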;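 also: firefly luciferase made from a UUG start codon reports start codon fidelity; reporter light over untreated wells divided by growth signal over untreated wells; some hits fall short of that in this replicate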
Env fusion inh = inhibitors of HIV-1 Env-driven cell-cell fusion, primary screen, HeLa-JRFL effector, CEM21 target cells, luciferase; AID 651610, 2012; inhibition, % at 12.3 µM; 360,000 tested, 1.1% active;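 active = mean replicate inhibition score of at least 50 and every replicate individually at or above 50; inconclusive = only one of the two criteria met; inactive = mean below 50 and not all replicates reaching 50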;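 also: 0% = plate neutral controls and 100% = maraviroc near 300 nM; one replicate is shown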
CSC inhib = cancer stem cell viability inhibitors, primary screen, luminescence; cancer stem cell-like cells viability; inhibition, % at 7.5 µM; 300,000 tested, 1.1% active;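 active = mean at 75% or more and at least half the replicates too; inconclusive = mean and replicates disagree; tested in HMLE shEcad cells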;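 also: 0% = median of negative and 100% = median of positive control wells; the first replicate is given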
MT1-MMP act inh = blockers of MT1-MMP proenzyme processing, primary screen, HT1080 RFP-PRO-GFP cells, GFP/RFP fluorescence; Matrix metalloproteinase-14 (Homo sapiens), P50281; GFP/RFP ratio fluorescence, overnight; percent of plate control window, DMSO zero; GFP/RFP ratio change, % at 20 µM; 360,000 tested, 0.061% active; AID 651647, 2012;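 active = GFP/RFP ratio change of at least 30% with cell ATP level not reduced by more than half and red fluorescence within 50% of control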; also: strong numbers were not always called active
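Assay system: HT1080 cells carrying an RFP-PRO-GFP reporter | Dosing: Single dose of 20 µM compound, 1% DMSO final | Incubation: Cells overnight before dosing, compound overnight, 37 °C, 5% CO2 | Evaluation: GFP/RFP fluorescence ratio | Control set: DMSO and RFP-L50D-GFP cell wells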
eIF4H FP inh = human eIF4H binding inhibitors, primary screen, translation initiation inhibitor project, biochemical, uHTS, fluorescence polarization. 290,000 tested, 0.94% active. eIF4H fluorescence polarization binding assay. AID 2012, 2009. Eukaryotic translation initiation factor 4H (Homo sapiens), Q15056. inhibition, % at 35 µM;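 active = 50% or more with normal probe brightness, or confirmed in later tests; inconclusive = above 50% with abnormal brightness, or retests that disagree; inactive = below 50% or failed in later tests; about a fifth of its hits are not listed in these tables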;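 also: calls also rest on retests at 20 µM and on dose response follow-up; 0% = protein and probe with vehicle and 100% = probe without protein; strong numbers were not always called active; many hits fall short of the cut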
MT1-MMP act inh RFP = also measured in MT1-MMP act inh; calls as there; RFP signal change, %; measured here: RFP expression control read;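 0 = vehicle wells; hits needed this value within 50% of zero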
* marks the source's active call; other numbers are inactive results; i = inactive; u = inconclusive; x = no result given. An excerpt (hit frequency here may not be typical).

SMILES	Rce1 inhib	PABP FP inh	Yeast UUG start	Env fusion inh	CSC inhib	MT1-MMP act inh	MT1-MMP act inh RFP	eIF4H FP inh
COc1cc(/C=C2/SC(=O)N(Cc3ccccc3)C2=O)ccc1OCc1ccncc1	i	2	2	x	67	-57	-46	-5
Nc1ncnc2[nH]c(=S)[nH]c12	x	x	-16	19	x	-3	0	x
Cn1cnc2c1c(=O)n(Cc1cccc(F)c1)c(=O)n2C	i	1	1	3	-9	0	2	6
CCOC(=O)C1CCN(CC(=O)Nc2ccc(S(=O)(=O)N3CCC(C)CC3)cc2)CC1	i	-5	-17	6	-13	1	-10	1
COc1cc(/C=C/C(=O)O)cc(S(=O)(=O)Nc2ccc3[nH]c(=O)[nH]c3c2)c1OC	i	-8	3	-22	-4	3	3	-20
COc1ccc2cnn(-c3ccc(OC(F)(F)F)cc3)c(=O)c2c1OC	i	9	-3	-26	-6	3	-3	4
C[C@H](O)[C@@H]1C(=O)N2CCc3c([nH]c4ccccc34)[C@@H]2C[C@@H]1N(C)Cc1ccc(Cl)cc1	x	x	-6	i	x	-39	-20	x
Cc1nn(C)cc1/C=C/C(=O)c1ccccc1	i	10	-4	-115	6	1	-2	-7
COc1ccccc1C(=O)OCCc1ccccc1	x	x	-24	-36	x	-2	0	x
Cc1nc2c([nH]c3ccc(Br)cc32)s1	i	-6	-8	x	-3	21	-1	-3
COc1ccc(-c2c(C)cc3oc(=O)cc(-c4ccccc4)c3c2C)cc1C=O	x	x	-16	-101	x	1	-9	x
COC(=O)COc1cccc(NC(=O)COc2ccccc2)c1	i	2	-5	x	-9	-6	0	-1
Cc1cccc(N2CCN(C(=O)c3cccc(N4C(=O)C5CC=CC(C)C5C4=O)c3)CC2)c1C (configuration not stated)	i	-4	8	u	-11	-1	-7	-3
NC(=O)CC(NC(=O)Cc1cccc2ccccc12)c1ccc(N2CCN(c3ccccn3)CC2)c([N+](=O)[O-])c1 (configuration not stated)	i	12	1	17	-7	7	0	4
c1ccc(CNCc2ccc(CNCc3ccccc3)cc2)cc1	x	x	-6	-2	x	4	4	x
CC(C)C(=O)Nc1c(-c2ccccc2F)c(=O)c2ccccc2n1C	i	13	-8	7	9	-1	-2	13
CN(C)c1ccc(-c2nnn(Cc3ccccc3Br)n2)cc1	i	-7	-10	x	25	0	-4	-2
CCN(CC)C(=O)c1nc[nH]c1C(=O)N(CC)CC	x	x	2	-1	-26	4	6	x
CC1CCN(c2oc(-c3cccc4ccccc34)nc2C#N)CC1	i	34	-11	-75	-2	-1	2	u
Cc1csc(SCC(=O)NC2CCS(=O)(=O)C2)n1 (configuration not stated)	x	x	4	3	x	-4	3	x
O=C(Nn1c(O)c(C=C2N=c3ccccc3=N2)sc1=S)c1ccccc1	i	32	-24	-28	-9	12	3	27
Cc1ccc2c(c1)NC(=O)C(CC(=O)NCCCN1CCCCC1)O2 (configuration not stated)	i	5	-11	-28	7	1	7	-2
CN(C(=O)N1CCN(S(=O)(=O)c2ccccc2)CC1)c1ccccc1	i	-1	-9	19	-14	-3	-1	0
C=CCn1c(Oc2ccc(C=O)cc2OCC)nc2c1c(=O)n(C)c(=O)n2C	i	-4	-1	5	-8	-3	-3	-7
Cc1cc(C(=O)N/N=C\c2cc(C(C)(C)C)c(O)c(C(C)(C)C)c2)n[nH]1	x	10	-15	6	-13	-1	-6	-3

Continued.
SMILES	Rce1 inhib	PABP FP inh	Yeast UUG start	Env fusion inh	CSC inhib	MT1-MMP act inh	MT1-MMP act inh RFP	eIF4H FP inh
Cc1cccc(C)c1OCC(=O)Nc1ccncc1	i	2	-15	-8	12	14	-14	-5
Oc1c(Cl)cc(Cl)cc1CNc1nc2ccccc2[nH]1	i	11	-17	-32	34	2	-3	-7
O=C(O)C1C2C=CC(C2)C1C(=O)N1CCN(CCO)CC1 (configuration not stated)	i	0	-5	-17	-5	5	11	-3
CN(C(=O)c1cccc(NC(=O)Cc2cccc(NC(=O)C3CCN(C(=O)c4ccccc4)CC3)c2)c1)C1CCCC1	x	x	-17	-20	x	3	-4	x
Cc1nc2[nH]c(=S)[nH]c2cc1Br	i	-1	-25	x	-9	4	0	1
CC(=O)NC(C)Cc1cn(Cc2ccccc2)c2ccccc12 (configuration not stated)	i	8	-3	6	1	-3	-3	4
C/C(=N\S(=O)(=O)c1ccc(C)cc1)N1CCCCC1	i	-5	-7	-3	-3	2	2	-2
O=C(COC(=O)c1ccc([N+](=O)[O-])o1)Nc1ccc2c(c1)OCO2	x	x	-22	-11	6	-2	-2	x
O=C1c2ccccc2C(=O)N1/N=C/c1ccc(O)c(O)c1O	i	68*	-36	x	x	-1	7	98*
O=C(CSc1nc2ccccc2o1)N1c2ccccc2Sc2ccc(Cl)cc21	i	-5	-17	x	-3	-8	-7	0
CCOC(=O)Nc1nc(-c2ccccc2)c(C(=O)c2ccccc2)s1	i	-7	-6	x	62	5	-10	0
COCCCNC(=S)NCCc1ccc(F)cc1	i	0	-25	-5	1	1	4	1
CCn1cc(Br)c(C(=O)Nc2ccccc2C(=O)OC)n1	i	-6	x	-95	0	1	3	2
COC(=O)c1ccccc1NC(=O)C1CC(=O)N(c2ccc(C)cc2)C1 (configuration not stated)	i	-5	-5	-27	12	1	2	-5
N#C/C(=C\c1ccc(N2CCOCC2)cc1)c1ccccc1	i	10	-25	x	17	-1	-1	-5
COc1ccc(CN(C(C)=O)c2cccc(C)c2C)cc1	i	1	-4	x	-12	-3	-14	-6
CCOC(=O)[C@@H]1[C@H]2COc3ccc(Br)cc3[C@H]2N2C(=O)N(c3ccc(Cl)cc3)C(=O)[C@@]12C	i	12	x	x	15	x	x	48
COc1ccc(N=C2SC(C(=O)N3CCN(c4ccc([N+](=O)[O-])cc4)CC3)CC(=O)N2C)cc1 (configuration not stated)	x	3	-9	-25	-1	1	-12	-5
COc1cc(C)c(NC(c2ccccc2)c2ccccc2)cc1OC	i	-4	x	34	16	1	-7	-3
O=C(/C=C/c1ccc([N+](=O)[O-])cc1)N1CCN(c2ccccc2F)CC1	i	3	-16	-14	-5	2	4	-8
COc1ccc(N(C(=O)c2ccco2)C(C(=O)NC2CCCC2)c2ccncc2)cc1OC (configuration not stated)	i	-6	-6	4	x	1	2	-3
CC(NC(=O)Cc1cccs1)c1ccncc1 (configuration not stated)	i	9	x	-108	10	4	3	7
O=C(Cn1c(=O)n(Cc2ccco2)c(=O)c2c3c(sc21)CCCC3)Nc1ccccc1	i	-10	9	x	-6	3	3	-15
S=C1NCCN1CC1CCN(CCC23CC4CC(CC(C4)C2)C3)CC1	x	x	-13	-12	x	10	7	x
CC(C)c1ccc(S(=O)(=O)NC2CCCC2)cc1	i	1	-8	-24	-1	2	-3	-5

(next part)
SMILES	Rce1 inhib	PABP FP inh	Yeast UUG start	Env fusion inh	CSC inhib	MT1-MMP act inh	MT1-MMP act inh RFP	eIF4H FP inh
O=C(CS(=O)(=O)c1ccccc1)Nc1ccc(S(=O)(=O)Nc2ncccn2)cc1	x	-5	x	2	-5	0	2	0
COc1ccc(NS(=O)(=O)c2ccc(C(=O)N3CCCCCC3)cc2)cc1	x	x	-9	21	-19	5	-24	x
C/C(=N/NS(=O)(=O)c1cc(C)ccc1C)c1ccncc1	i	-10	-15	21	13	0	4	-10
CCC(C)N=CC1=C(O)CC(c2ccccc2)CC1=O (configuration not stated)	i	-2	-4	x	13	5	3	11
CCN(CC(=O)Nc1c(F)cccc1F)C(=O)c1ccc(C)c(S(=O)(=O)N2CCCCC2)c1	i	x	-2	x	-8	-1	2	x
S=c1[nH]nc(-c2ccco2)n1/N=C/c1ccccn1	i	-12	x	x	-2	x	x	4
O=c1[nH]c(C2CCN(S(=O)(=O)Cc3ccccc3)CC2)nc2c1nnn2Cc1ccccc1Cl	i	11	-11	-3	-12	0	-4	13
COC(=O)CSc1nc(N2CCOCC2)c2c(c1C#N)CC(C)(C)N(C)C2	i	u	-15	x	-12	-6	-1	u
COc1cc(S(=O)(=O)N2CCN=C2c2ccccc2)ccc1F	i	-2	-7	30	x	2	0	2
COc1cc(C(=O)OCCNC(=O)c2cccnc2)cc(OC)c1OC	x	x	0	-10	-11	-3	1	x
CC1CCCC(C)N1C(=O)c1ccccc1Nc1ccc(SC(F)F)cc1 (configuration not stated)	i	5	-22	-32	15	-21	-20	7
Nc1nc(-c2ccc(Cl)cc2)c(N=Nc2ccc(S(=O)(=O)N3CCOCC3)cc2)s1	i	12	-11	x	64	57*	-6.6*	-7
O=C1OC(N2C(=O)CC[C@H]2C(=O)Nc2ccc(Br)cc2F)c2ccccc21 (some centres not stated)	i	-15	-12	x	3	2	0	-14
Cc1nc(C)c(C(=O)NNS(=O)(=O)c2ccc3ccccc3c2)s1	i	u	x	33	-11	-3	-17	-5
COC(=O)c1cn(-c2ccccc2)nc1-c1ccc(OC)c(OC)c1	i	4	x	-12	1	x	x	0
CCCCc1cc(=O)oc2cc(C)cc(OCC(=O)O)c12	i	6	-5	-34	-5	-1	6	11
Cc1nn(-c2ccccc2)c(Cl)c1/C=C(\CC(=O)O)c1nc2ccccc2s1	i	4	-9	x	-2	-1	4	-7
COc1ccc2[nH]c3c(c2c1)CCN1C(=O)C(CC(=O)NCCC2=CCCCC2)C[C@H](C(=O)N2CCOCC2)[C@@]31C (some centres not stated)	x	x	-11	2	x	4	5	x
NC(N)=NS(=O)(=O)c1ccc(NC(=S)NC(=O)c2sc3ccccc3c2Cl)cc1	i	2	-6	-32	7	0	4	-1
COc1ccc(N2CCN(CCCNC(=O)C3CCCN(S(=O)(=O)c4c(C)n[nH]c4C)C3)CC2)cc1 (configuration not stated)	i	-2	x	17	-16	0	0	-11
Cn1ccnc1C1CCCCN1Cc1nc(Cc2ccccc2F)no1 (configuration not stated)	i	-8	-22	3	0	2	4	1
CC1(C)Cc2cccc(OCC(=O)NC3CC3)c2O1	i	1	-8	-44	-10	-5	1	-8
CC1CCCC(NC(=S)Nc2cccc(S(=O)(=O)N(C)C)c2)C1C (configuration not stated)	i	2	-13	5	x	-6	-9	-9
O=S(=O)(Cc1ccccc1)N=Nc1c(O)[nH]c2ccc(Br)cc12	i	13	-11	x	1	2	13	-10
Cn1c(/C=C/c2cccc([N+](=O)[O-])c2)c([N+](=O)[O-])c(=O)n(C)c1=O	i	8	-24	13	32	-10	-14	-3

The list goes on.
SMILES	Rce1 inhib	PABP FP inh	Yeast UUG start	Env fusion inh	CSC inhib	MT1-MMP act inh	MT1-MMP act inh RFP	eIF4H FP inh
O=C(NCc1ccccn1)c1ccc(N2CCCC2)c([N+](=O)[O-])c1	i	-7	-19	-7	x	1	-1	1
CC(C)C(NC(=O)c1cccs1)C(=O)NC1=NCCS1 (configuration not stated)	i	-6	-18	20	5	0	3	3
Cc1cc(=O)oc2cc(OCC(=O)NC3CCN(Cc4ccccc4)CC3)ccc12	i	-5	-13	-5	3	0	4	-17
COc1ccc(C2C(=O)c3ccccc3C2=O)c(OC)c1	i	-3	-20	5	-4	9	6	7
O=C(CSc1nnc2ccccn12)Nc1nsc(-c2ccccc2)n1	i	-8	x	11	-9	-3	0	9
O=C(COc1ccc(Br)cc1)NC1CC1	i	3	-1	4	-2	1	1	-13
CCOc1ccc(N(CC(=O)Nc2nccs2)S(=O)(=O)c2c(C)[nH]c(=O)[nH]c2=O)cc1	i	-4	x	14	-1	0	1	-8
CSCc1ccc(C(=O)NCc2ccc(F)cc2)cc1	i	-4	x	-9	-20	2	1	-5
